HPGD block: inhibitors of human 15-hydroxyprostaglandin dehydrogenase (HPGD) | P15428 | purified HPGD, NADH fluorescence kinetic, PGE2 substrate | Potency, µM, without a hit: at the top dose activity change, negative = inhibition, usual class: inhibitors | hit rate 4.3% among 150,000 | AID 894; active = well fitted inhibition curve with a large enough effect (not every such curve was filed as active); inconclusive = small, poorly fitted or top-dose-only effect, or another doubt; inactive = no such curve, though single readings can be large or run the other way;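 also: top concentration of the series not given in the record; plate controls included wells without enzyme; inactives centre near -10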
Target sequence (P15428 whole entry, looked up): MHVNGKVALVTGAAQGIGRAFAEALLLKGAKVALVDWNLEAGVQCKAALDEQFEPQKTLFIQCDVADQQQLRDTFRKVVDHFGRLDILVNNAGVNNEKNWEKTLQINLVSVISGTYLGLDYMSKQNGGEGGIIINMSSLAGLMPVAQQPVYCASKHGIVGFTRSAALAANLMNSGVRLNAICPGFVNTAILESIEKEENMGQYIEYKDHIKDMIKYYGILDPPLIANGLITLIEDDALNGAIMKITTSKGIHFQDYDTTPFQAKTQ
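NADH formation kinetics: reaction with 30 uM PGE2 and 1 mM NAD+ (final), 20 nM enzyme, Tris-HCl pH 8 with Tween 20, after 15 min compound preincubation at room temperature. Fluorescence change, last versus first of five reads.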
Active calls of the source: *; ? = inconclusive. % is scaled to controls: 0 for no effect and ±100 for the full control effect; potency is read from the fitted curve at half-maximal effect. An excerpt; count on the stated rates, not on these rows.

Start of the listing, in advance, 3 compounds:
O=C1OCC(CO)(CO)N=C1NNc1ccc(Cl)c(Cl)c1
  HPGD block: -1%
O=C(Nc1cccc([N+](=O)[O-])c1)c1ccc(CSc2ccccc2)cc1
  HPGD block: -12%
Cc1cc(N2CCN(C)CC2)n2cc(-c3ccc(F)cc3)nc2n1
  HPGD block: ?

Main list, from the first entry:
O=C1OCC(CO)(CO)N=C1NNc1ccc(Cl)c(Cl)c1
  HPGD block: -1%
O=C(Nc1cccc([N+](=O)[O-])c1)c1ccc(CSc2ccccc2)cc1
  HPGD block: -12%
Cc1cc(N2CCN(C)CC2)n2cc(-c3ccc(F)cc3)nc2n1
  HPGD block: ?
CCCCn1nnc(NC(=O)c2sc3cc(Cl)ccc3c2Cl)n1
  HPGD block: -26%
CCN(CCO)C[C@H]1CCC[C@H]2CCCC[C@@H]21
  HPGD block: -2%
NC(=S)NNC(=O)[C@@H]1CCCC[C@@H]1C(=O)O
  HPGD block: -29%
O=C(CSc1nnnn1Cc1ccccc1)NCC(=O)c1ccccc1
  HPGD block: -10%
CC(C)(C)SCCNC(=O)/C=C/c1cccc([N+](=O)[O-])c1
  HPGD block: -7%
c1ccc(Cn2ccnc2SCc2nnc(-c3ccccc3)o2)cc1
  HPGD block: 25µM*
O=C(CSc1nc2ccccc2c2nc3ccccc3n12)NCc1ccco1
  HPGD block: ?
OC(CN1CCN(c2ccccn2)CC1)Cn1c2ccc(Cl)cc2c2cc(Cl)ccc21 (centres undefined)
  HPGD block: -26%
COc1ccc(N=c2oc3cc(O)ccc3cc2C(=O)NCC2CCCO2)cc1 (centres undefined)
  HPGD block: ?
CC1=CC(C)(C)N(C(=O)CSc2nnc(C)s2)c2ccc(C)cc21
  HPGD block: -8%
O=C(NCCC1=CCCCC1)C1CCCN(S(=O)(=O)c2cccc3cccnc23)C1 (centres undefined)
  HPGD block: -7%
CCOC(=O)C(Cc1ccccc1)NC(=O)Cn1nnc(-c2ccccc2)n1 (centres undefined)
  HPGD block: -4%

CCCCOCCCNC1=NCCCCC1
  HPGD block: -2%
COc1ccc(S(=O)(=O)NCCCCCC(=O)NCCCN2CCOCC2)cc1
  HPGD block: -6%
CCCCNS(=O)(=O)c1ccc2c(c1)oc(=O)n2CC(=O)OCC
  HPGD block: -10%
Cc1[nH]c2ccccc2c1Cc1nnc(SCCC#N)o1
  HPGD block: -16%
Cc1cc(C(F)(F)F)nn1CC(=O)NNC(=S)NCC(C)C
  HPGD block: -6%
COC(=O)c1ccc2c(=O)n(CCO)c(=S)[nH]c2c1
  HPGD block: -12%
CC1=CC2=NC(=O)/C(=C\c3cccn3CCOc3cc(C)ccc3C)C(=N)N2O1
  HPGD block: -10%
COc1cccc(NC(=O)/C=C\c2ccc(Cl)cc2)c1
  HPGD block: -15%
Cc1cc(-n2nc(C)cc2C)nc(NS(=O)(=O)c2ccccc2)n1
  HPGD block: -3%
N#Cc1cc(N2CCCCC2)c([N+](=O)[O-])cc1C#N
  HPGD block: -16%
O=C(NCCC(=O)N1CCN(c2ncccn2)CC1)c1ccccc1Cl
  HPGD block: -24%
COC(=O)c1ccccc1NC(=O)C1CCCN(S(C)(=O)=O)C1 (centres undefined)
  HPGD block: -25%
OCCN1CCN(Cc2cc(Cl)c3cccnc3c2O)CC1
  HPGD block: -1%
O=C(Oc1ccc(-n2cnnn2)cc1)c1ccco1
  HPGD block: -14%
NCCN=C1NS(=O)(=O)c2ccccc21
  HPGD block: 1%

Quoted from the listing:
Value for NCCN=C1NS(=O)(=O)c2ccccc21 in HPGD block: 1%
Value for Cc1cc(-n2nc(C)cc2C)nc(NS(=O)(=O)c2ccccc2)n1 in HPGD block: -3%
Value for CCCCOCCCNC1=NCCCCC1 in HPGD block: -2%

(continued)
NC(=O)CS(=O)(=O)c1nc2ccccc2n1CC(=O)N1CCCCC1
  HPGD block: -1%
O=c1cc2c(nn1Cc1c(Cl)cccc1Cl)-c1ccccc1CC2
  HPGD block: -2%
CN(C)CCN1C(=O)c2oc3ccc(F)cc3c(=O)c2C1c1ccncc1 (centres undefined)
  HPGD block: -10%
CCN(c1cccc(C(F)(F)F)c1)S(=O)(=O)c1ccc2c(c1)CCN2C(=O)C1CC1
  HPGD block: -10%
CC(=O)OCCC(C)CCC=C(C)C (centres undefined)
  HPGD block: -10%
COc1ccccc1NC(=O)Cc1c(F)cccc1Cl
  HPGD block: -1%
C(#CCN1CCC(Cc2ccccc2)CC1)COCCOCc1ccccc1
  HPGD block: -11%
COc1ccc(-n2c(C)cc(C(=O)CSc3ccc(NC(C)=O)cc3)c2C)cc1
  HPGD block: -8%
CCC(=O)Nc1nnc(CSCc2ccccc2)s1
  HPGD block: -9%
COC(=O)C(CC(=O)c1ccc(Cl)cc1)c1ccc(C)cc1 (centres undefined)
  HPGD block: -10%
CS(=O)(=O)N(Cc1ccccc1)c1ccc(C(=O)NCc2cccnc2)cc1
  HPGD block: -5%
O=C1CC(C(=O)Nc2ccccc2)C2(CCCCC2)O1 (centres undefined)
  HPGD block: -14%
CSc1ccc(/C=C(\C(=O)O)c2ccc(S(=O)(=O)N3CCCCC3)s2)cc1
  HPGD block: 16%
COc1cccc(N(CC(=O)NCc2cccnc2)S(C)(=O)=O)c1
  HPGD block: -3%
COC(=O)C1=C(C)N(Cc2ccccc2)C(=O)N[C@H]1c1cccc(C(F)(F)F)c1
  HPGD block: -3%

CC1C(=NO)C(C)C(c2ccccc2)NC1c1ccccc1 (centres undefined)
  HPGD block: -5%
COC(=O)C1=C(C)NC(C)=C(C(=O)OC)C1c1cc2cc(C)ccc2[nH]c1=O
  HPGD block: ?
O=c1c(Cl)c(N2CCCCC2)cnn1-c1nc2ccccc2[nH]1
  HPGD block: -8%
Cc1nc2cc(-n3ccc(=O)cc3)ccc2n1-c1ccccc1
  HPGD block: -13%
O=C(CCC(=O)c1cccs1)NCC(=O)Nc1ccc(F)c(F)c1F
  HPGD block: -6%
CC(=O)Nc1ccc(Nc2cc(C)nc3c(-c4ccc(Cl)cc4)cnn23)cc1
  HPGD block: ?
COc1ccc(NS(=O)(=O)c2cccc(NC(=O)CCC(=O)c3cccs3)c2)cc1
  HPGD block: -11%
Cc1nn(C)c(C(=O)NC2C3CC4CC(C3)CC2C4)c1Cl (centres undefined)
  HPGD block: -9%
O=C(O)/C=C/C(=O)Nc1ccc(SC(F)(F)F)cc1
  HPGD block: -24%
CCc1ccc(N2CCCn3c2nc2c3c(=O)n(CCN3CCOCC3)c(=O)n2C)cc1
  HPGD block: 2%
COC(=O)c1nn2c(C(F)(F)F)cc(-c3ccc(Br)o3)nc2c1Br
  HPGD block: -8%
COc1ccc(C(C#N)N2CCOCC2)cc1 (centres undefined)
  HPGD block: 3%
COc1ccccc1-c1cc(C(=O)Nc2cc(C)on2)no1
  HPGD block: -12%
COc1ccc(C(C#N)C2(C)OCCO2)cc1OC (centres undefined)
  HPGD block: -9%
Cn1c(OCc2ccco2)nc2c1c(=O)n(Cc1ccc(Cl)c(Cl)c1)c(=O)n2C
  HPGD block: -16%

Cc1ccccc1C(=O)NC(C)c1ccc2c(c1)CCCC2 (centres undefined)
  HPGD block: -16%
Cc1cccc(NS(=O)(=O)c2cc(C(=O)OC(C)C(=O)NCc3ccc4c(c3)OCO4)ccc2C)c1 (centres undefined)
  HPGD block: -13%
CCOc1ccc2c(=O)c(Oc3ccccc3)c(C)oc2c1
  HPGD block: -16%
O=C(CCN1C(=O)C2C3C=CC(C3)C2C1=O)N1CCN(c2ccccc2Cl)CC1 (centres undefined)
  HPGD block: -7%
CC1=C(C(N)=O)N2C(=O)[C@@H](NC(=O)Cc3ccccc3)C2SC1 (some centres undefined)
  HPGD block: -10%
Cc1cc(C)nc(N(C#N)CN2C(=O)c3ccccc3C2=O)n1
  HPGD block: ?
Clc1ccc(CCNc2nc3ccccc3s2)cc1
  HPGD block: -12%
O=C(CNC(=O)c1ccc(Cl)cc1)N/N=C/C=C/c1ccccc1
  HPGD block: -19%
CC1=C(C(N)=O)C(c2cccc(OCc3ccccc3)c2)n2nnnc2N1 (centres undefined)
  HPGD block: -6%
Cc1cccc(-n2ncc3c(N)ncnc32)c1
  HPGD block: -28%
CCOc1ccc(CCNC(=O)CCc2nc(-c3ccc(OC)cc3)no2)cc1OCC
  HPGD block: -12%
O=C(c1sc2ccccc2c1Cl)N(Cc1ccccc1Cl)C1CCS(=O)(=O)C1 (centres undefined)
  HPGD block: -21%
CCCc1nc(C(C)(C)O)c(C(=O)OCc2oc(=O)oc2C)n1Cc1ccc(-c2ccccc2-c2nn[nH]n2)cc1
  HPGD block: -11%
COc1ccc(-n2c(=O)c(C)nc3cnc(N(C)C)nc32)cc1
  HPGD block: -8%
Cc1ccc(CCNC(=O)c2nnn(-c3cccc(C)c3)c2N)cc1
  HPGD block: -22%

COc1ccc(/C=C/C(=O)NC2CCCCCC2)cc1S(=O)(=O)N1CCOCC1
  HPGD block: -11%
O=C1CC(c2ccco2)CC(O)=C1C=NCCN1CCNCC1 (centres undefined)
  HPGD block: -17%
COc1ccc(Cn2c(=S)[nH]c3ccsc3c2=O)cc1
  HPGD block: -28%
Nc1cc(OC(=O)c2cccs2)nn1S(=O)(=O)c1ccc(F)cc1
  HPGD block: ?
COc1ccc(Cl)cc1N1C(=O)C2CCCN2C1c1ccc(F)cc1 (centres undefined)
  HPGD block: -8%
CN(C)CCCOC1C(C(O)CO)OC2OC(C)(C)O[C@@H]21 (some centres undefined)
  HPGD block: -6%
O=[N+]([O-])c1ccc(O)c(N=Cc2sc3ccccc3c2O)c1
  HPGD block: 14µM*
CC(=O)CC(=O)Nc1ccn(-c2ccccc2)n1
  HPGD block: -7%
CCCC(c1nnnn1Cc1cccs1)N1CCN(C2CCCC2)CC1 (centres undefined)
  HPGD block: -10%
COc1cccc(-c2nn[nH]n2)c1O
  HPGD block: -3%
Cc1ccc(Nc2c(N)c(=O)oc3ccccc23)cc1
  HPGD block: -20%
COc1cc(CC(=O)Oc2ccc3c(c2)OCO3)cc(OC)c1OC
  HPGD block: -3%
COc1ccc(Oc2nc3ccccc3nc2C(F)(F)F)cc1
  HPGD block: -6%
CCn1cc(Cl)c(C(=O)Nc2nc3ccccc3n2CCN2CCCCC2)n1
  HPGD block: -3%
Cc1ccc(-n2ncc3c(NCc4cccnc4)ncnc32)c(C)c1
  HPGD block: ?

Cc1nc(C(=O)Nc2cc(Cl)ccc2Cl)nn1-c1cc(OC(C)C)c(Cl)cc1Cl
  HPGD block: ?
Cc1ccc(C2C(C=Nc3c(C)n(C)n(-c4ccccc4)c3=O)=C(c3ccccc3)Oc3ccccc32)cc1 (centres undefined)
  HPGD block: -7%
CC1(C)CC(N2CN(C3CCCCC3)CC2=O)CC(C)(C)N1
  HPGD block: -3%
Cc1ccc(NC(=O)CO/N=C/c2ccc(N(C)C)cc2)cc1
  HPGD block: -20%
CCNc1nc(NCC)nc(SCCOC(=O)Nc2ccc(Cl)cc2Cl)n1
  HPGD block: -7%
O=C(COc1cccc2ccccc12)NNC(=O)C1CCCO1 (centres undefined)
  HPGD block: -9%
CCC(C)(C(=O)Nc1ccc2c(c1)OCCO2)N(C(C)=O)c1ccc(C(N)=O)cc1 (centres undefined)
  HPGD block: -14%
Cc1ccc(S(=O)(=O)N2CCC(=O)N(CCOC(=O)Nc3cccc(Cl)c3)CC2)cc1
  HPGD block: -9%
Cc1ccccc1Cn1nc(C)c(NC(=O)/C=C/c2cnn(C)c2)c1C
  HPGD block: 1%
OC(CNc1ccccc1)COc1ccc(OCC(O)CNc2ccccc2)cc1 (centres undefined)
  HPGD block: -16%
COC(=O)c1sc(NC(=O)C2CCCO2)c(C(=O)OC)c1C (centres undefined)
  HPGD block: -29%
COc1ccc(C(=O)n2nc(-c3ccc(C)cc3)nc2N)cc1OC
  HPGD block: -24%
Cc1cccc(NC(=S)N(CCCN2CCOCC2)Cc2ccccn2)c1
  HPGD block: -8%
O=C(CN1CCOCC1)Nc1ncc(Br)cc1Br
  HPGD block: -3%
C=CCN1C(=O)C2(NNc3ccccc3O2)c2ccccc21 (centres undefined)
  HPGD block: -20%

CCC(CC)c1nnc(NC(=O)COc2ccc3c(C)cc(=O)oc3c2)s1
  HPGD block: -24%
C=COCCNC(=O)C1CC(=O)N(c2ccc(C)cc2)C1 (centres undefined)
  HPGD block: 0%
O=C(CSc1ccc(Cl)cc1)Nc1ccc(NC(=O)c2ccco2)cc1
  HPGD block: ?
Cc1cc(C)c2c(c1)-c1c(ssc1=S)C(C)(C)N2C(=O)CSc1nncn1C
  HPGD block: -4%
NC(=O)c1ccc(NC(=O)COC(=O)c2c3c(nc4ccccc24)/C(=C\c2ccc4c(c2)OCO4)CCC3)cc1
  HPGD block: ?
COC(=O)Cc1c(C)c2ccc(OCC(=O)N3CCOCC3)cc2oc1=O
  HPGD block: ?
Cc1ccc(NC(=O)C(=O)NCCN2CCN(Cc3ccc([N+](=O)[O-])cc3)CC2)cc1
  HPGD block: -9%
Fc1ccc(Cn2c(SCc3ccc(F)c(C(F)(F)F)c3)nnc2C(F)(F)F)cc1
  HPGD block: -10%
O=C(NCCN1CCN(c2ccccc2F)CC1)c1cccn2c(=O)c3ccccc3nc12
  HPGD block: -27%
CC(C)c1ccccc1N1CC(C(=O)O)CC1=O (centres undefined)
  HPGD block: -14%
COc1ccc(OCC(=O)OCC(=O)NCc2ccco2)cc1
  HPGD block: -14%
COc1ccc(CNC(=O)c2cc(-c3ccco3)on2)cc1
  HPGD block: -14%
Cc1ccc(S(=O)(=O)N2CCOCC2)cc1C(=O)Nc1ccc2c(c1)CCC2
  HPGD block: -10%
Cc1cccc(CSc2cn(CC(=O)N3CCOCC3)c3ccccc23)c1
  HPGD block: -10%
O=C(C1CCC1)N1CCc2cc(S(=O)(=O)Nc3ccc4c(c3)OCO4)ccc21
  HPGD block: -20%
O=C(CCCC(=O)OCC1CCCO1)OCC1CCCO1 (centres undefined)
  HPGD block: 3%
C=CCNC(=O)c1ccccc1NC(=O)c1ccc(Cl)c(S(=O)(=O)Nc2ccccc2)c1
  HPGD block: ?
Cc1ccnc2nc(C(=O)N3CCN(S(=O)(=O)c4ccccc4)CC3)nn12
  HPGD block: -2%
